# Cruzain noTriton – inhibitors of Trypanosoma cruzi cruzain without detergent. P25779. purified cruzain, Z-FR-AMC fluorescence, no detergent. Potency, µM, without a hit: max response, negative = inhibition, usual class: inhibitors. 2.3% of 200,000 active. AID 1476;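 note: plate controls were enzyme without inhibitor for no effect and buffer without enzyme for full effect; nearly all actives have a fitted effect of over 40% in size; top concentration of the series not given in the record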
# Target sequence (P25779 123-467 limits assumed): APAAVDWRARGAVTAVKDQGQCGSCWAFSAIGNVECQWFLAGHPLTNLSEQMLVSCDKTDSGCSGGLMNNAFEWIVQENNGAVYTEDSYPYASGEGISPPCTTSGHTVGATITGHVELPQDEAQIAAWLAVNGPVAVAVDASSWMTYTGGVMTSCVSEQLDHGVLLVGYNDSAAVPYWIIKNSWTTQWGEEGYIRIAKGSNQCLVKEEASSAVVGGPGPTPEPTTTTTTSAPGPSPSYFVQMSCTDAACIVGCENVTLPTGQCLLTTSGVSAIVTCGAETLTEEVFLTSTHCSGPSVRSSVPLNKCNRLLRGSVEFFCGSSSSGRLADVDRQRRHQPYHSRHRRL
#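 Purified cruzain at 1.5 nM, pre-incubated 15 min with compound at room temperature in 100 mM sodium acetate pH 5.5, 5 mM DTT, 0.00005% Triton X-100. Reaction started with 2 uM Z-FR-AMC; AMC fluorescence increase over 60 s gives rate.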
# NS1 inh – inhibitors of influenza NS1 protein function | S. cerevisiae slowed by influenza A NS1, growth recovery by OD600 | Potency, µM (doses to about 46.1 µM), for the others: top-dose activity, positive = more growth | 0.4% of 270,000 active | AID 2326; active means well fitted rising curve with a large enough effect; inconclusive means small, poorly fitted or top-dose-only effect; inactive means no such curve, though single readings can be large or run the other way; note: nearly all actives have a fitted effect of over 50% in size
#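 In this qHTS, NS1 from influenza A is expressed in budding yeast, where it slows growth. Cells are switched from glucose to 2% galactose medium (pH 6.0, -URA), treated with compound, and growth recovery is read at OD600.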
# SARS PLpro yeast – SARS-CoV PLP inhibition in yeast | S. cerevisiae expressing SARS-CoV PLpro, growth rescue; control for the full effect not named in the record | Potency, µM (series often up to 32.9 µM), for inactives: at the top dose activity, positive = growth rescue | 0.19% of 330,000 active; active means well fitted rising curve with a large enough effect; inconclusive means small, poorly fitted or top-dose-only effect; inactive means no such curve, though single readings can be large or run the other way; note: 0% is about no effect; nearly all actives have a fitted effect of over 55% in size; growth read by luminescence after 48 h
# StopGo reporter – lowers the luciferase signal of an FMDV 2A StopGo reporter. human cells with a luciferase reporter of 2A StopGo recoding; control for the full effect not named in the record. 1.2% of 410,000 active. AID 1159524. Potency, µM (doses to about 57.9 µM), for inactives: at the highest dose signal change, negative = less light; active = well fitted falling curve with a large enough effect; inconclusive = small, poorly fitted or top-dose-only effect; inactive = no such curve, though single readings can be large or run the other way; tested in HEK293T cells; note: % is set by controls: 0 for no effect and ±100 for the full control effect; nearly all actives have a fitted effect of over 45% in size; luciferase light after 4 h
# Lassa entry inh – blocks Lassa virus binding to or entry into cells; Lassa virus pseudotype entry inhibition, cell reporter; control for the full effect not named in the record; Potency, µM (highest dose often 37.9 µM), for inactives: top-dose activity change, negative = inhibition, hits mostly inhibitors; 1.2% of 300,000 active; AID 540256; active means well fitted inhibition curve with a large enough effect; inconclusive means small, poorly fitted or top-dose-only effect, or effect the other way; inactive means flat fitted curve, though single readings scatter; tested in HEK293 cells; note: % is set by controls: 0 for no effect and ±100 for the full control effect; nearly all actives have a fitted effect of over 50% in size; luciferase read-out
# Cruzain Triton – cruzain (T. cruzi) inhibition with detergent | P25779 | purified cruzain, Z-FR-AMC fluorescence, 0.01% Triton | Potency, µM, inactives show max response, negative = inhibition, hits mostly inhibitors | 0.43% of 200,000 active;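 note: plate controls were neutral wells for no effect and buffer without enzyme for full effect; nearly all actives have a fitted effect of over 40% in size; top concentration of the series not given in the record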
#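 Cysteine protease activity tested under reducing, mildly acidic conditions (100 mM sodium acetate pH 5.5, 5 mM DTT) plus 0.01% Triton X-100. Cruzain 1.5 nM; substrate Z-FR-AMC 2 uM; 15 min compound preincubation at room temperature.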
# Marburg entry inh – Marburg virus entry inhibition; Marburg virus pseudotyped entry inhibition, cell reporter; control for the full effect not named in the record; about a third of the inactives were read at about 46 µM; 1.8% of 300,000 active; Potency, µM (doses to about 37.8 µM), without a hit: at the highest dose activity change, negative = inhibition, most hits filed as inhibitors; active = well fitted inhibition curve with a large enough effect; inconclusive = small, poorly fitted or top-dose-only effect, or effect the other way; inactive = flat fitted curve, though single readings scatter; tested in HEK293 cells; about a fifth of its hits are not listed in these tables; note: % is set by controls: 0 for no effect and ±100 for the full control effect; luciferase read-out
# RE007 growth inh – less growth of the S. pombe RE007 Vpr strain; S. pombe RE007 Vpr strain, BacTiter-Glo ATP luminescence, 24 h; control for the full effect not named in the record; Potency, µM (top dose mostly 92.2 µM), for the others: top-dose activity change, negative = less growth; 0.21% of 360,000 active; AID 651644; active = well fitted falling curve with a large enough effect; inconclusive = small, poorly fitted or top-dose-only effect; inactive = no such curve, though single readings can be large or run the other way;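 note: % is set by controls: 0 for no effect and ±100 for the full control effect; nearly all actives have a fitted effect of over 50% in size; the assay follows cell death caused by Vpr and the record does not say whether a fall means rescue or toxicity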
#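 Fission yeast strain RE007, carrying one chromosomally integrated HIV-1 vpr copy, was seeded at OD 0.01 in PMG+AL medium with 23 nL pinned compound. After 24 h at 30 °C and 99% humidity, viability was read by BacTiter-Glo luminescence.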
# Numbers without * were called inactive; ? = inconclusive; / = no result given; & = joins results of further samples; [ ] = another dose, or the depositor's remark. Unless noted, calls come from the whole dose curve; as a rule, active = well fitted curve in the direction sought with a large enough effect; inconclusive = small, poorly fitted or top-dose-only effect, or another doubt; inactive = no such curve, though single readings can be large; an effect the other way counts as inactive or inconclusive. Potency is the fitted concentration of half-maximal effect. Random draw from the library; overall some 4.7% were active at least once.
SMILES,Cruzain noTriton,NS1 inh,SARS PLpro yeast,StopGo reporter,Lassa entry inh,Cruzain Triton,Marburg entry inh,RE007 growth inh
COc1ccc(C(=O)Nc2nnc(S(=O)(=O)N3CCCCCC3)s2)cc1OC,-5%,3%,8%,17%&23%,19%[46.1 µM],-3.1%,/,14%
COc1ccccc1-n1c(C)cc(C=O)c1C,2%,1%,3%,-8%,5%,2.4%,19%,16%
CCOC(=O)c1ccc(N(C(=O)c2cnccn2)C(C(=O)NC2CCCCC2)c2cn(C)nc2C)cc1 (stereo unspecified),?,-1%,?,12%,1%,2.5%,?,-5%[3.69 µM]
CCCC1(C(=O)OC)NC(c2ccco2)C2C(=O)N(c3ccc(C)cc3)C(=O)C21 (stereo unspecified),-3%,-4%,-5%,10%,-14%,-0.7%,?,4%
COc1ccc(OCC(=O)NCC(c2ccc(Cl)cc2)N2CCCCC2)cc1 (stereo unspecified),-6%,/,/,-20%,5%[46.1 µM],0.0%,?,/
COc1ccc(N=[N+]([O-])c2ccc(OC)cc2)cc1,-6%,/,/,?,?,4.8%,?,-9%
c1ccc(-c2noc(-c3ccncc3)n2)nc1,7%,2%,-12%,/,-12%,0.5%,?,?
COc1ccc2c(-c3ccccc3)cc(SCC(=O)N(C)C3CCS(=O)(=O)C3)nc2c1 (stereo unspecified),?,22%,11%,-24%,?,-8.5%,-26%,-6%
CCn1c(=O)n(CC)c2cc(N3CCCC3)c(NC(=O)c3cc(Br)ccc3OC)cc21,/,-12%,1%,?,/,/,/,-17%
COc1ccc(S(=O)(=O)N(CC(=O)NC(C)C)Cc2ccccc2)cc1,1%,-4%,-2%,24%,-14%,0.1%,-17%,1%
COc1ccc(NC(C)C(=O)N/N=C/c2ccccc2OCc2cccc(Br)c2)cc1 (stereo unspecified),?,-3%,-7%,-16%,11µM*,-4.9%,?,-5%
CC(C)Oc1cccc(C(=O)C2CCCN(Cc3cnn(C(C)C)c3)C2)c1 (stereo unspecified),/,0%,0%,-19%,-3%,/,-28%[46.1 µM],6%
Cc1cc(C(=O)N(C)C2CCCCC2)no1,/,3%,1%,-14%,/,/,/,10%
CCOc1ccc(CCNC(=O)COC(=O)COc2ccc(Cl)cc2)cc1OCC,/,/,0%,-13%,24%,/,3%[46.1 µM],-7%
O=C(CCc1nc2ccccc2[nH]1)Nc1ccccc1F,/,-3%,0%,-1%,/,/,/,0%
COc1ccc(/C(C)=N/NC(=O)OC(C)(C)C)cc1[N+](=O)[O-],/,-7%,0%,18%,/,/,/,8%
Cc1cc(C(=O)NNC(=O)c2ccccc2F)c2ccccc2n1,/,/,-1%,1%,16%,/,3%,15%
Cc1ccc(Nc2nc(N)nc(CN3CCN(c4ccccc4)CC3)n2)cc1Cl,?,-74%,-1%,-9%,-26%,-10%,-42%,-6%
O=C(CCN1C(=O)c2ccccc2S1(=O)=O)Nc1cc(Cl)ccc1Cl,/,/,-3%,-13%,1%,/,5%,16%
O=C(/C=C/C(=O)NCc1cccs1)NCc1cccs1,/,7%,-2%,-4%,-15%,/,-3%[46.1 µM],7%
CN(C)S(=O)(=O)c1cccc(NC(=O)c2cncc(Br)c2)c1,-6%,14%,13%,1%,0%,-0.7%,?,5%
COc1ccc(CN=Cc2c(C(F)(F)F)[nH][nH]c2=O)cc1,-5%,-92%,5%,-22%,-11%,-0.9%,11%[46.1 µM],-15%
CCOC(=O)c1c(C)c(C(=O)Nc2ccccc2)c(C)n1CC,-2%,0%,-2%,26%,20%,3.6%,9%,14%
COC(=O)c1c(N)n(Cc2ccc(OC)cc2)c2nc3ccccc3nc12,?,-52%,-4%,-19%,23%,-18%,?,24%
CCN(C(=O)c1nn(-c2ccc(OC)cc2)c(=O)c2c1c1ccccc1n2C)c1ccc(OC)cc1,/,/,-3%,-6%,-5%[46.1 µM],/,16%[46.1 µM],17%
SMILES,Cruzain noTriton,NS1 inh,SARS PLpro yeast,StopGo reporter,Lassa entry inh,Cruzain Triton,Marburg entry inh,RE007 growth inh
O=S(=O)(NCc1ccncc1)c1ccc(S(=O)(=O)NCC2CCCO2)cc1 (stereo unspecified),-3%,4%,6%,/,?,1.6%,?,-20%
Cc1ccc(NC(=S)c2ccc(N(C)C)cc2)cc1,-28%,-9%,5%,9%,?,-4.1%,?,8%
Cc1cccc(OCC(=O)Nc2c(C(=O)N3CCN(c4ccccc4)CC3)oc3ccccc23)c1,?,/,/,47%[activator],-11%[46.1 µM],-6.3%,1%[46.1 µM],/
O=P(CCc1ccccc1)(c1ccccc1)c1ccccc1,/,/,/,13%,0%[46.1 µM],/,-1%[46.1 µM],0%
O=C(NC1CCCCC1)C(c1ccncc1)N(CC1CCCO1)C(=O)C(F)(F)F (stereo unspecified),-9%,-3%,-4%,-7%,2%,0.5%,-3%,6%
COc1cccc(-n2ccn(CC(=O)NCc3ccc(C)cc3)c(=O)c2=O)c1,-6%,/,/,1%,0%[46.1 µM],-2.0%,/,/
CCCCc1ccc(N=N/C(C(=O)Nc2cc(OC)c(NC(C)=O)cc2OC)=C(/C)O)cc1,6%,6%,-18%,?,?,-3.4%,5%,28%
COc1ccc(Cl)cc1-n1nnc(-c2nc(-c3ccccc3)no2)c1C,2%,/,/,53%[activator],6%[46.1 µM],2.9%,/,/
O=C(O)c1ccc(S(=O)(=O)c2ccc3c(c2)C(=O)N(NC(=O)c2ccc(O)cc2)C3=O)cc1,/,4%,0%,5%,3%,/,2%[46.1 µM],8%
CCNC(=O)CCc1nc(-c2ccc(C)cc2)no1,/,3%,-3%,49%[activator],24%,/,17%&17%,15%
O=C(/C=C/c1ccc2c(c1)OCO2)NC1CCCC1,/,-44%,-3%,52%[activator],/,/,/,-9%
O=C(Nc1ccccc1C(F)(F)F)N1CC=C(c2c[nH]c3ccccc23)CC1,-3%,/,/,7%,6%[46.1 µM],-2.1%,/,/
CCOc1ccc2nc(NC(=O)c3cccn(Cc4ccc(C)cc4)c3=O)sc2c1,-9%,/,/,?,?,0.0%,/,/
COc1ccc(CC(=O)Nc2ccc3c(C(F)(F)F)cc(=O)oc3c2)cc1OC,?,11%,-11%,-22%,-7%,-4.1%,3%,6%
O=C1CC(C(=O)N(CC2CCCO2)C(C(=O)NC2CCCCC2)c2ccncc2)CS1 (stereo unspecified),5%,-14%,-5%,-7%,1%,-1.3%,-16%,-7%
COc1cccc(NC(=O)CN(CCc2ccccc2)S(=O)(=O)c2ccc(Cl)cc2)c1,-6%,/,/,16%,-22%[46.1 µM],-3.3%,/,/
CN(C)c1ccc(/C=N/NC(=O)CNC(=O)/C=C/c2ccccc2)cc1,/,2%,-5%,5%,-18%,/,3%,20%
CCCCN(CC)Cc1ccc(CNC(=O)Nc2ccc(OCC)cc2)o1,3%,-8%,6%,-2%,2%,2.0%,?,-11%
COC(=O)C1=C(C)NC(C)=C(C(=O)OC)C1c1ccc2ccccc2n1,1%,8%,5%,-21%,-8%,-3.8%,?,-6%
O=C(Cn1cnc2ccccc21)Nc1ccc(SC(F)F)cc1,/,/,0%,?,-16%[46.1 µM],/,3.2µM*,-3%
Cc1cccc(Cc2cnc(NC(=O)c3ccc4c(c3)CC(c3ccccc3)OC4=O)s2)c1 (stereo unspecified),-18%,/,/,?,12%[46.1 µM],-1.3%,-1%[46.1 µM],/
CCCCNc1oc(-c2ccc(OC)cc2)nc1S(=O)(=O)c1ccccc1,?,-5%,2%,1%,?,28µM*,-12%,-8%
CC(=O)c1ccccc1OCC(O)CN1CCN(C(c2ccccc2)c2ccccc2)CC1 (stereo unspecified),8%,-11%,-4%,-17%,-25%,1.1%,?,6%
CC(NC(=O)Cn1cnc([N+](=O)[O-])n1)c1ccccc1 (stereo unspecified),3%,6%,2%,-3%,-3%,4.0%,1%[46.1 µM],-12%
COc1cc(Cl)c(C)cc1NC(=O)CSc1ccc(NC(C)=O)cc1,?,-12%,2%,-34%,-6%,-9.1%,?,4%
SMILES,Cruzain noTriton,NS1 inh,SARS PLpro yeast,StopGo reporter,Lassa entry inh,Cruzain Triton,Marburg entry inh,RE007 growth inh
COc1ccc(CNC(=O)C2CCCN2CCc2ccccc2)cc1OC (stereo unspecified),/,/,1%,-30%,-5%,/,-22%[46.1 µM],-13%
COc1ccc(OC)c(CNC(=O)Cc2ccc(NC(=O)N3CCSc4ncccc43)cc2)c1,-18%,/,/,?,2%[46.1 µM],-15%,/,/
CC(C)(CCO)Nc1ncnc2onc(-c3ccc(F)cc3)c12,/,2%,0%,-23%,10%[46.1 µM],/,-3%[46.1 µM],4%
Cc1nnc(NC(=O)CN2C(=O)c3ccccc3S2(=O)=O)s1,2%,-4%,-12%,-18%,-7%,4.4%,?,7%
Cc1ccccc1CS(=O)(=O)CC(O)CN1CCCC1=O (stereo unspecified),/,3%,-2%,1%,/,/,/,-4%
COC(C[C@H](O)C[C@@H](O)[C@@H](C)OCc1ccccc1)OC,/,3%,1%,-21%,/,/,/,-12%
Cc1c(CCOC(=O)C23CC4CC(CC(C4)C2)C3)sc[n+]1Cc1ccccc1,-9%,-20%,-16%,-9%,2%,-1.1%,2%,8%
O=C(c1cc(COc2ccc(F)cc2F)on1)N1CC[C@@H]2CCCC[C@H]2C1,/,17%,2%,18%,-11%,/,-12%,-19%
NS(=O)(=O)c1ccc(NC(=O)CSc2nc(Nc3ccccc3)nc(N3CCOCC3)n2)cc1,/,15%,-4%,-25%,-30%,/,?,9%
O=C(CSc1n[nH]c(-c2ccccn2)n1)Nc1ccc(F)cc1,/,8%,-4%,12%,10µM*,/,?,3%
CCn1c(SCC(=O)c2ccccc2)nnc1-c1cnccn1,10%,9%,-3%,46%[activator],14%,-1.0%,?,0%
Cc1ccc2nc(NCC(=O)O)nc(-c3ccccc3)c2c1,2%,-1%,-5%,-25%,-4%,1.7%,-32%,17%

# Compound activity (PubChem BioAssay)
